Bioassay records from PubChem.
ID4 binder – ID4 (human) binding; P47928; small molecule microarray, Flag-ID4 binding, fluorescence F/B; calls only; 31,000 tested, 1.2% active; AID 624137;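 active = spot signal over background at p below 0.07 in all four prints; compounds were printed on slides so no solution concentration is given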;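 note: a binder raises fluorescence above local background on the spot; about 2 pmol printed per array spot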
Target sequence (P47928 whole entry, looked up): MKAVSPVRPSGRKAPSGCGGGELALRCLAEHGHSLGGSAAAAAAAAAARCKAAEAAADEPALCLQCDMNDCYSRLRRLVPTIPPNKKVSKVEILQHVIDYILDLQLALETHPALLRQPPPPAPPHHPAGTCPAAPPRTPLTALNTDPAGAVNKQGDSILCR
p53 mut binder – binds human mutant p53 on microarray; small molecule microarray binding, anti-GST fluorescence; calls only; 17,000 tested, 0.4% active; AID 624136;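 active = compounds whose four printed spots each glow above background more than chance allows, each with a p-value under 7%; compounds were printed on slides so no solution concentration is given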;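 note: about 2 pmol printed per array spot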
c-Myc SMM – c-Myc (human) binding; P01106; small molecule microarray, His-c-Myc binding, anti-His fluorescence; calls only; 17,000 tested, 1.5% active; AID 624141;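 active = spot fluorescence over background with P-value below 7% in all four replicate spots, showing protein binding; compounds were printed on slides so no solution concentration is given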;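 note: score is binary with 100 for all four spots passing and 0 otherwise; about 2 pmol printed per array spot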
Target sequence (P01106 whole entry, looked up): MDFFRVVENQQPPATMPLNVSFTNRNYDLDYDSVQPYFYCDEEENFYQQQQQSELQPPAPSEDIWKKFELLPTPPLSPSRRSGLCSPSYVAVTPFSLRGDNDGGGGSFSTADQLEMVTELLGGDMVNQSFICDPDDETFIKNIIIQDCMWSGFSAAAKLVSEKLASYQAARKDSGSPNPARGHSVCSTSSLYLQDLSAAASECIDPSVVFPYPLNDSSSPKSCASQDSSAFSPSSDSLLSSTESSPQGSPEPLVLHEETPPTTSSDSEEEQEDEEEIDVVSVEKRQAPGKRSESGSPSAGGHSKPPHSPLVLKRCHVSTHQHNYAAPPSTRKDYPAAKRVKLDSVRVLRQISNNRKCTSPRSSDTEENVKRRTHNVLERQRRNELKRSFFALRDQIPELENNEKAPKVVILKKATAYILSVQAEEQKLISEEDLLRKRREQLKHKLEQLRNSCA
STAT3 binder – binds human STAT3 on microarray. P40763. Small molecule microarray, His-STAT3 binding, anti-His fluorescence. calls only. 17,000 tested, 0.2% active. AID 624138;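 active = compounds whose four printed spots each show fluorescence over background unusually high for their array block, chance value under 7%; compounds were printed on slides so no solution concentration is given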;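 note: about 2 pmol printed per array spot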
Calls only; i = inactive; x = not tested or not shown; + = active, no number. This is a subset; rates above refer to the full screens.

SMILES	ID4 binder	p53 mut binder	c-Myc SMM	STAT3 binder
C[C@H]1CN([C@@H](C)CO)C(=O)Cc2cc(NC(=O)C3CC3)ccc2O[C@@H]1CN(C)C	i	i	i	i
COc1ccc(N(CC(=O)O)S(C)(=O)=O)cc1	i	i	i	i
C[C@@H]1CCCCO[C@H](CN(C)C)[C@H](C)CN([C@H](C)CO)C(=O)c2cc(NC(=O)CCC(F)(F)F)ccc2O1	i	i	i	i
C[C@@H]1CCCCO[C@@H](CN(C)C)[C@@H](C)CN([C@H](C)CO)C(=O)c2cc(NC(=O)Nc3ccccc3)ccc2O1	i	i	i	i
Cc1ccc2oc(-c3cc(NC(=O)c4ncn[nH]4)ccc3O)nc2c1	i	i	i	i
Cc1sc2nc(SCC(=O)N3CCC(c4noc5ccc(F)cc45)CC3)n(-c3ccccc3)c(=O)c2c1C	i	i	i	i
COC(=O)c1ccccc1NC(=O)CSc1nc2cc3ccccc3cc2[nH]1	i	i	i	i
COc1cc(NC(=S)NCCCO)c(OC)cc1Cl	i	i	i	i
c1ccc2[nH]c(CCn3c4c(c5ccccc53)CCCC4)nc2c1	i	i	i	i
Cc1noc(C)c1NC(=O)Nc1ccc2c(c1)C(=O)N([C@@H](C)CO)C[C@H](C)[C@H](CN(C)C(=O)C1CCCCC1)OCCCC[C@@H](C)O2	i	i	i	i
C[C@@H]1CN([C@H](C)CO)C(=O)c2cc(NS(C)(=O)=O)ccc2O[C@H]1CN(C)CC1CCCCC1	x	i	i	i
C[C@@H]1CCCCO[C@H](CN(C)C)[C@H](C)CN([C@@H](C)CO)C(=O)c2cc(NC(=O)CCC(F)(F)F)ccc2O1	i	i	i	i
O=C(CSc1nc2[nH]ncc2c(=O)n1-c1ccccc1)Nc1ccc(F)c(Cl)c1	i	i	i	i
CCC(=O)NC1CCc2cccc(OC)c2C1 (stereo unspecified)	i	i	i	i
C[C@@H]1CN([C@@H](C)CO)C(=O)c2cc(NC(=O)C3CCCCC3)ccc2O[C@@H]1CN(C)S(=O)(=O)c1ccc(F)cc1	x	i	i	i
COc1ccc(S(=O)(=O)Nc2ccc3c(c2)C(=O)N([C@H](C)CO)C[C@H](C)[C@H](CN(C)S(=O)(=O)c2cccs2)O3)cc1	i	i	i	i
C[C@H](CO)N1C[C@H](C)[C@@H](CN(C)C)OCCCC[C@H](C)Oc2ccc(NS(=O)(=O)c3cn(C)cn3)cc2C1=O	i	i	i	i
O=C(CC1NC(=O)NC1=O)Nc1ccccc1 (stereo unspecified)	i	i	i	i
C[C@@H]1CN([C@@H](C)CO)C(=O)c2cc(NC(=O)c3ccncc3)ccc2O[C@@H]1CN(C)C(=O)Nc1ccc2c(c1)OCO2	i	i	i	i
C[C@@H]1CN([C@H](C)CO)C(=O)Cc2cc(NC(=O)Cc3ccccc3)ccc2O[C@H]1CN(C)C(=O)Nc1ccccc1	i	i	i	i
C[C@@H]1CN([C@@H](C)CO)C(=O)c2cccc(NS(=O)(=O)c3cn(C)cn3)c2O[C@H]1CN(C)C(=O)NC1CCCCC1	i	i	i	i
COc1ccc(OC)c(N(CC(=O)Nc2c(F)cccc2F)S(C)(=O)=O)c1	i	i	i	i
CCC(=O)Nc1cccc(NC(=O)COc2ccc(Br)cc2)c1	i	i	i	i
COc1ccccc1Nc1nc(N)nc(CSCCO)n1	i	i	i	i
COc1cc(CC(CO)C(CO)Cc2cc(OC)c(O)c(-c3cc(CC(CO)C(CO)Cc4ccc(O)c(OC)c4)cc(OC)c3O)c2)ccc1O (stereo unspecified)	x	i	i	i
C[C@H](CO)N1C[C@H](C)[C@@H](CN(C)Cc2ccc(C(=O)O)cc2)Oc2ccc(NC(=O)Nc3ccc4c(c3)OCO4)cc2C1=O	i	i	i	i
C[C@H](CO)N1C[C@H](C)[C@H](CN(C)Cc2ccc(Oc3ccccc3)cc2)OCc2cnnn2CCCC1=O	i	i	i	i
C[C@H]1CN([C@@H](C)CO)C(=O)Cc2cc(NC(=O)C3CC3)ccc2O[C@@H]1CN(C)Cc1ccc(C(F)(F)F)cc1	i	i	i	i
CC1=C(C(=O)c2ccccc2)C(NC(=O)c2ccncc2)(C(F)(F)F)C(=O)N1Cc1ccccc1 (stereo unspecified)	i	i	i	i
C[C@H](CO)N1C[C@H](C)[C@H](CN(C)Cc2cccc(C(F)(F)F)c2)Oc2ncccc2C1=O	i	i	i	i
C[C@@H]1CN([C@H](C)CO)C(=O)c2cc(NC(=O)Nc3cccc4ccccc34)ccc2O[C@@H]1CN(C)C(=O)Nc1ccc2c(c1)OCO2	i	i	i	i
C[C@@H]1CN([C@@H](C)CO)C(=O)CCCn2nncc2CO[C@H]1CN(C)C(=O)c1ccccc1	i	i	i	i
C[C@@H]1CN([C@H](C)CO)C(=O)c2cc(NC(=O)NC3CCCCC3)ccc2O[C@H]1CN(C)C	i	i	i	i
C[C@@H]1CCCCO[C@@H](CN(C)C(=O)CCC(F)(F)F)[C@H](C)CN([C@@H](C)CO)C(=O)c2cc(NC(=O)c3ccncc3)ccc2O1	i	i	i	i
COC(=O)c1ccc(C(=O)OC)c(NC(=O)CCC(=O)O)c1	i	i	i	i
COc1cc2oc(-c3ccc(O)cc3)cc(=O)c2c(O)c1OC	i	i	i	i
COc1ccc(S(=O)(=O)N(C)C[C@@H]2Oc3c(NC(=O)c4cc(C)nn4C)cccc3C(=O)N([C@H](C)CO)C[C@H]2C)cc1	i	i	i	i
C[C@H]1CN([C@@H](C)CO)C(=O)Cc2cc(N(C)C)ccc2O[C@@H]1CN(C)Cc1ccncc1	i	i	i	i
Cc1ccc(S(=O)(=O)Nc2ccccc2-c2nc3ccccc3c(=O)o2)cc1	i	i	i	i
C[C@H](CO)N1C[C@H](C)[C@@H](CN(C)S(=O)(=O)c2cn(C)cn2)Oc2c(NS(=O)(=O)c3ccc(F)cc3)cccc2C1=O	x	i	i	i
C[C@@H]1CN([C@@H](C)CO)C(=O)Cc2cc(NC(=O)Nc3cccc4ccccc34)ccc2O[C@@H]1CN(C)C(=O)Nc1ccc2c(c1)OCO2	x	i	i	i
Cc1cc(CNC(=O)Nc2cccc([N+](=O)[O-])c2)nn1C	i	i	i	i
Cc1ccc(NC(=O)CSc2nnc(-c3ccncc3)n2-c2ccccc2)cc1	i	i	i	i
CC1(C)Cc2c(c(N3CCOCC3)nc3sc4c(NCCN5CCOCC5)ncnc4c23)CS1	i	i	i	i
CNC[C@@H]1OCCCC[C@@H](C)Oc2ccc(NS(=O)(=O)c3c(C)noc3C)cc2C(=O)N([C@H](C)CO)C[C@@H]1C	i	i	i	i
C[C@@H]1CCCCO[C@H](CN(C)C(=O)CCCN(C)C)[C@H](C)CN([C@@H](C)CO)C(=O)c2cc(N(C)C)ccc2O1	i	i	i	i
C[C@@H]1CCCCO[C@H](CN(C)Cc2ccccc2)[C@@H](C)CN([C@@H](C)CO)C(=O)c2cc(NS(C)(=O)=O)ccc2O1	i	i	i	i
O=S(=O)(NCc1ccco1)c1ccc(Oc2ccccc2)cc1	i	i	i	i
N#Cc1c(C(F)(F)F)cc(-c2ccc(Br)cc2)nc1SCCC(=O)O	i	i	+	i
C[C@@H]1CN([C@H](C)CO)C(=O)Cc2cc(NC(=O)C3CC3)ccc2O[C@H]1CN(C)S(=O)(=O)c1cccs1	i	i	i	i
C=CCc1ccc(O)c(-c2ccc(O)c(CC=C)c2)c1	x	i	i	i
CC(=O)Nc1cccc(OCC(=O)N(C)c2ccccc2)c1	i	i	i	i
Cc1noc(C)c1S(=O)(=O)N(C)C[C@@H]1Oc2ccc(NS(=O)(=O)c3cn(C)cn3)cc2CC(=O)N([C@H](C)CO)C[C@@H]1C	i	i	i	i
C[C@@H]1CN([C@H](C)CO)C(=O)c2cccc(NC(=O)c3cnccn3)c2O[C@H]1CN(C)C(=O)Nc1ccccc1	i	i	i	i
C[C@@H]1CN([C@H](C)CO)C(=O)c2cc(N(C)C)ccc2O[C@H]1CN(C)C(=O)Nc1ccc(F)cc1	i	i	i	i
C[C@@H]1CN([C@H](C)CO)C(=O)Cc2cc(NC(=O)CCC(F)(F)F)ccc2O[C@H]1CN(C)C	i	i	i	i
C[C@H](CO)N1C[C@H](C)[C@@H](CN(C)S(=O)(=O)c2cn(C)cn2)Oc2c(NS(=O)(=O)c3ccc(Cl)cc3)cccc2C1=O	i	i	i	i
OCCNc1nc(Nc2ccc(Cl)cc2)nc(N2CCCCC2)n1	i	i	i	i
Cc1ccc2nc(-c3ccccn3)cc(C(=O)NCc3ccccn3)c2c1	i	i	i	i
O=C1O[C@@H](c2ccccc2)[C@@H](c2ccccc2)N2[C@@H](c3ccc(O)cc3)[C@]3(C(=O)Nc4ccc(C#CCCO)cc43)[C@@H](C(=O)O)[C@H]12	i	i	i	i

Results in p53 mut binder, ID4 binder and STAT3 binder (two entries from above):
SMILES | p53 mut binder | ID4 binder | STAT3 binder
Cc1ccc2nc(-c3ccccn3)cc(C(=O)NCc3ccccn3)c2c1 | i | i | i
O=C1O[C@@H](c2ccccc2)[C@@H](c2ccccc2)N2[C@@H](c3ccc(O)cc3)[C@]3(C(=O)Nc4ccc(C#CCCO)cc43)[C@@H](C(=O)O)[C@H]12 | i | i | i

Another view of part of the listing above:
C[C@@H]1CN([C@H](C)CO)C(=O)Cc2cc(NC(=O)CCC(F)(F)F)ccc2O[C@H]1CN(C)C
- ID4 binder: i
- p53 mut binder: i
- c-Myc SMM: i
- STAT3 binder: i
C[C@H](CO)N1C[C@H](C)[C@@H](CN(C)S(=O)(=O)c2cn(C)cn2)Oc2c(NS(=O)(=O)c3ccc(Cl)cc3)cccc2C1=O
- ID4 binder: i
- p53 mut binder: i
- c-Myc SMM: i
- STAT3 binder: i
OCCNc1nc(Nc2ccc(Cl)cc2)nc(N2CCCCC2)n1
- ID4 binder: i
- p53 mut binder: i
- c-Myc SMM: i
- STAT3 binder: i

The listing continues:
SMILES	ID4 binder	p53 mut binder	c-Myc SMM	STAT3 binder
C[C@@H]1CN([C@@H](C)CO)C(=O)Cc2cc(NS(=O)(=O)c3cccs3)ccc2O[C@@H]1CN(C)S(=O)(=O)c1ccc(Cl)cc1	i	i	i	i
COc1cccc2c1C(=O)CC(c1ccccc1)O2 (stereo unspecified)	x	i	i	i
COc1ccc(CN(C)C[C@H]2Oc3ccc(NC(=O)Nc4c(C)noc4C)cc3CC(=O)N([C@@H](C)CO)C[C@@H]2C)cc1	i	i	i	i
C[C@@H]1O[C@@H](O[C@@H]2C=C(CO)[C@H]3[C@H](O[C@@H]4O[C@H](CO)[C@@H](O)[C@H](O)[C@H]4O)OC=C[C@H]32)[C@H](O)[C@H](O)[C@H]1OC(=O)/C=C/c1ccccc1	x	i	i	i
C[C@H](CO)N1C[C@H](C)[C@H](CN(C)C(=O)Nc2ccc(F)cc2)Oc2ncc(C#CCC3CCCC3)cc2C1=O	i	i	i	i
CC(=O)Nc1ccc(S(=O)(=O)N(C)CC(=O)O)cc1	i	i	i	i
COc1c(O)c(C(=O)/C=C\c2ccccc2)c(OC)c(OC)c1OC	x	i	i	i
C[C@@H]1CN([C@@H](C)CO)C(=O)c2cccc(NC(=O)c3nc4ccccc4s3)c2O[C@@H]1CN(C)CC1CC1	i	i	i	i
COC(=O)CN(c1cc(Cl)cc(Cl)c1)S(=O)(=O)c1ccccc1	i	i	i	i
COCCOC(=O)N1C(=O)[C@@]2(c3cc(C#CCCO)ccc31)[C@H](C(N)=O)[C@H]1C(=O)O[C@H](c3ccccc3)[C@H](c3ccccc3)N1[C@@H]2c1ccc(OCCO)cc1	i	i	i	i
C[C@H](CO)N1C[C@H](C)[C@@H](CN(C)Cc2ccc3c(c2)OCO3)OCCCC[C@H](C)Oc2ccc(NC(=O)CCCN(C)C)cc2C1=O	i	i	i	i
C[C@H](CO)N1C[C@H](C)[C@H](CN(C)Cc2ccc(F)cc2)Oc2ncc(C#Cc3ccccc3)cc2C1=O	i	i	i	i
CC(C)[C@H](N)C(=O)N[C@@H](Cc1c[nH]c2ccccc12)C(=O)O	x	i	i	i
C[C@H](CO)N1C[C@H](C)[C@H](CN(C)CC2CC2)Oc2ccc(NS(=O)(=O)c3cccs3)cc2C1=O	i	i	i	i
COc1ccc(CN(C)C[C@H]2Oc3c(NS(=O)(=O)c4cn(C)cn4)cccc3C(=O)N([C@@H](C)CO)C[C@H]2C)cc1	i	i	i	i
CCC(=O)Nc1ccc(S(=O)(=O)Nc2cccnc2)cc1	i	i	i	i
O=S(=O)(Nc1ncccn1)c1ccc(NC(=S)Nc2ccc(F)c(Cl)c2)cc1	i	i	i	i
COCCOC(=O)N1C(=O)[C@@]2(c3cc(C#CC4(O)CCCCCC4)ccc31)[C@H](C(=O)NC[C@H](O)c1ccccc1)[C@H]1C(=O)O[C@H](c3ccccc3)[C@H](c3ccccc3)N1[C@@H]2c1ccccc1OCCO	i	i	i	i
C[C@@H]1CCCCO[C@@H](CN(C)C)[C@H](C)CN([C@H](C)CO)C(=O)c2cc(NC(=O)C3CCCCC3)ccc2O1	i	i	i	i
C[C@@H]1CN([C@H](C)CO)C(=O)c2cccc(NC(=O)Nc3cccc4ccccc34)c2O[C@@H]1CN(C)S(C)(=O)=O	x	i	i	i
O=C(CSc1nnc(-c2cccnc2)n1-c1ccccc1)Nc1ccc(Oc2ccccc2)cc1	i	i	i	i
COc1ccccc1NC(=O)COc1ccc2c(-c3ccccc3)cc(=O)oc2c1C	i	i	i	i
COC(=O)C1=COC(O[C@@H]2O[C@H](CO)[C@@H](O)[C@H](O)[C@H]2O)[C@@H]2[C@@](C)(O)[C@@H](OC(=O)/C=C\c3ccccc3)C[C@]12O (stereo partly specified)	i	i	i	i
